2A StopGo: High Throughput Screening for Foot and Mouth Disease Virus Antivirals | human cells with a luciferase reporter of 2A StopGo recoding; control for the full effect not named in the record | Potency, µM (doses to about 57.9 µM), without a hit: at the top dose signal change, negative = less light | actives 1.2% (n = 410,000); active = well fitted falling curve with a large enough effect; inconclusive = small, poorly fitted or top-dose-only effect; inactive = no such curve, though single readings can be large or run the other way; tested in HEK293T cells; further: on the % scale 0 is the no-effect control and ±100 the full control effect; nearly all actives have a fitted effect of over 45% in size; luciferase light after 4 h
Cruzain Triton: qHTS Assay for Promiscuous and Specific Inhibitors of Cruzain (with detergent); Potency, µM, for the others: max response, negative = inhibition, usual class: inhibitors; actives 0.43% (n = 200,000); purified cruzain, Z-FR-AMC fluorescence, 0.01% Triton; active means well fitted curve in the direction sought with a large enough effect; inconclusive means small, poorly fitted or top-dose-only effect, or another doubt; inactive means no such curve, though single readings can be large; an effect the other way counts as inactive or inconclusive;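 further: plate controls were neutral wells for no effect and buffer without enzyme for full effect; nearly all actives have a fitted effect of over 40% in size; top concentration of the series not given in the record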
Target sequence (P25779 123-467 limits assumed): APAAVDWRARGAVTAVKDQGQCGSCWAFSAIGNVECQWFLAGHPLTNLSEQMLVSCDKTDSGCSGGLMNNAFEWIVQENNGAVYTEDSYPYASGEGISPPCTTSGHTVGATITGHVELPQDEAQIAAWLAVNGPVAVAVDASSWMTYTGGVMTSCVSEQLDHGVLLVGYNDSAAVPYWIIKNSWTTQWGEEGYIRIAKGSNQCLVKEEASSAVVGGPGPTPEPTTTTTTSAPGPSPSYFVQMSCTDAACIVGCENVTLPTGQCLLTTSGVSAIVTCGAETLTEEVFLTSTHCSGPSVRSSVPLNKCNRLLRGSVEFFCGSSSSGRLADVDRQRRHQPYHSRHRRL
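Detergent-containing arm of a paired screen for aggregation-based inhibition: 0.01% Triton X-100 present. Cruzain at 1.5 nM cleaved 2 uM Z-FR-AMC at pH 5.5 with 5 mM DTT; AMC fluorescence gain over 60 s measured activity.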
NS1 function inh: qHTS Assay for Inhibitors of Influenza NS1 Protein Function | Potency, µM (series often up to 46.1 µM), for inactives: top-dose activity, positive = more growth | S. cerevisiae slowed by influenza A NS1, growth recovery by OD600 | actives 0.4% (n = 270,000); further: actives are rising curves; nearly all actives have a fitted effect of over 50% in size
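Compounds were scored for reversing the slow growth caused by influenza A NS1 in S. cerevisiae, measured by optical density at 600 nm. Assay medium contained 2% galactose at pH 6.0; NS1-free yeast of the same strain were the positive control.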
LASV entry inh: qHTS for Inhibitors of binding or entry into cells for Lassa Virus; Lassa virus pseudotype entry inhibition, cell reporter; control for the full effect not named in the record; Potency, µM (doses to about 37.9 µM), without a hit: at the top dose activity change, negative = inhibition, actives largely listed as inhibitors; actives 1.2% (n = 300,000); AID 540256, 2011; active means well fitted inhibition curve with a large enough effect; inconclusive means small, poorly fitted or top-dose-only effect, or effect the other way; inactive means flat fitted curve, though single readings scatter; tested in HEK293 cells; further: on the % scale 0 is the no-effect control and ±100 the full control effect; nearly all actives have a fitted effect of over 50% in size; luciferase read-out
RE007 growth inh: qHTS Assay for Inhibitors of the HIV-1 protein Vpr; S. pombe RE007 Vpr strain, BacTiter-Glo ATP luminescence, 24 h; control for the full effect not named in the record; Potency, µM (doses to about 92.2 µM), without a hit: at the top dose activity change, negative = less growth; actives 0.21% (n = 360,000); AID 651644, 2012; active = well fitted falling curve with a large enough effect; inconclusive = small, poorly fitted or top-dose-only effect; inactive = no such curve, though single readings can be large or run the other way;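 further: on the % scale 0 is the no-effect control and ±100 the full control effect; nearly all actives have a fitted effect of over 50% in size; the assay follows cell death caused by Vpr and the record does not say whether a fall means rescue or toxicity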
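Fission yeast strain RE007, carrying one chromosomally integrated HIV-1 vpr copy, was seeded at OD 0.01 in PMG+AL medium with 23 nL pinned compound. After 24 h at 30 °C and 99% humidity, viability was read by BacTiter-Glo luminescence.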
Marburg entry inh: qHTS for inhibitors of binding or entry into cells for Marburg Virus; Potency, µM (top dose mostly 37.8 µM), for inactives: at the highest dose activity change, negative = inhibition, hits mostly inhibitors; Marburg virus pseudotyped entry inhibition, cell reporter; control for the full effect not named in the record; about a third of the inactives were read at about 46 µM; actives 1.8% (n = 300,000); AID 540276, 2011; active = well fitted inhibition curve with a large enough effect; inconclusive = small, poorly fitted or top-dose-only effect, or effect the other way; inactive = flat fitted curve, though single readings scatter; tested in HEK293 cells; about a fifth of its hits are not listed in these tables; further: on the % scale 0 is the no-effect control and ±100 the full control effect; luciferase read-out
SARS PLpro yeast: qHTS of Yeast-based Assay for SARS-CoV PLP; actives 0.19% (n = 330,000); S. cerevisiae expressing SARS-CoV PLpro, growth rescue; control for the full effect not named in the record; Potency, µM (series often up to 32.9 µM), without a hit: top-dose activity, positive = growth rescue; further: 0% is about no effect; nearly all actives have a fitted effect of over 55% in size; growth read by luminescence after 48 h
Cruzain noTriton: qHTS Assay for Promiscuous and Specific Inhibitors of Cruzain (without detergent) | Potency, µM, for inactives: max response, negative = inhibition, most hits filed as inhibitors | actives 2.3% (n = 200,000) | Cruzipain (Trypanosoma cruzi), P25779 | purified cruzain, Z-FR-AMC fluorescence, no detergent; active means well fitted curve in the direction sought with a large enough effect; inconclusive means small, poorly fitted or top-dose-only effect, or another doubt; inactive means no such curve, though single readings can be large; an effect the other way counts as inactive or inconclusive;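 further: plate controls were enzyme without inhibitor for no effect and buffer without enzyme for full effect; nearly all actives have a fitted effect of over 40% in size; top concentration of the series not given in the record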
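Detergent-free condition (0.00005% Triton X-100) in acetate buffer pH 5.5 with DTT. 1.5 nM enzyme and compound were pre-mixed 15 min, then 2 uM Z-FR-AMC substrate added; reaction progress from fluorescence change between first and third reads (60 s).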
Starred values were filed as active, the others as inactive; ? = inconclusive; . = no result given; [ ] = remark or other dose. Unless noted, the call rests on the fitted dose curve; in most records, active means well fitted rising curve with a large enough effect; inconclusive means small, poorly fitted or top-dose-only effect; inactive means no such curve, though single readings can be large or run the other way. Potency means the concentration at half of the fitted maximal effect.

SMILES	2A StopGo	Cruzain Triton	NS1 function inh	LASV entry inh	RE007 growth inh	Marburg entry inh	SARS PLpro yeast	Cruzain noTriton
CC(C)OCCCNC(=O)CN1C(=O)c2cccc3cccc1c23	-8%	.	3%	8%	4%	3%	-1%	.
CCOCCCNC(=O)C1CCN(C(=O)c2cc3sccc3n2C)CC1	-11%	-2.1%	.	.	.	0%[46.1 µM]	.	2%
COc1cc2ccc(=O)oc2c(CC=C(C)C)c1OC	-6%	.	6%	.	8%	.	2%	.
Cc1ccc(S(=O)(=O)NC2(C(=O)O)CCCC2)cc1	-12%	.	.	1%[46.1 µM]	-13%	19%	.	.
Cc1ccn2c(c1)nc(=S)n2C(=O)c1ccco1	.	-4.9%	19%	?	.	?	3%	-14%
O=C(CCC1CCCN(C(=O)COc2ccccc2)C1)N1CCN(c2ccccn2)CC1 (stereo not drawn)	?	.	-1%	-29%[46.1 µM]	5%	?	-2%	.
O=C(Nc1nc(-c2ccccc2)cs1)NC1CCCCC1	0%	-0.1%	6%	?	-5%	?	-29%	-4%
COc1ccc2[nH]c(C)c(CCNS(=O)(=O)c3cc(F)ccc3OC)c2c1	29%	-4.9%	.	4%[46.1 µM]	.	?	.	-5%
Cc1ccc(CN2CCNC(=O)C2CC(=O)NC2CCCCCC2)o1 (stereo not drawn)	12%	.	-1%	8%[46.1 µM]	8%	12%[46.1 µM]	0%	.
COc1ccc(CCNC(=O)CSc2nncs2)cc1	4%	3.8%	6%	-1%	.	?	-3%	13%
CN(C)c1ccc(NC(=S)NCC2CCCO2)cc1 (stereo not drawn)	68%[activator]	-0.7%	5%	?	-14%	-5%	20%	12%
CCOc1ccc2ccccc2c1C(=O)N1CCOCC1	-4%	4.5%	8%	?	10%	-2%	3%	6%
Cc1cc(C)n2nc(C(=O)OCC(=O)N3CCC3)nc2n1	-16%	.	.	?	-11%	?	1%	.
Clc1ccc2c(N3CCNCC3)ccnc2c1	1%	-9.6%	3%	28%	-16%	8%[46.1 µM]	.	-9%
CCOc1ccc(N2C(=O)CC(Sc3nc4ccc(OCC)cc4s3)C2=O)cc1 (stereo not drawn)	11%	.	.	15%	-10%	16%	.	.
COc1ccccc1C1SCCN1S(C)(=O)=O (stereo not drawn)	-19%	0.2%	5%	14%	4%	-2%	13%	1%
O=C(Nc1ccccc1O)/C(=C\c1ccccc1)NC(=O)c1ccccc1	12%	.	4%	23%[46.1 µM]	3%	26%[46.1 µM]	-1%	.
O=C1NC(=O)C(Nc2ccccc2)C(=O)N1	-6%	.	.	-1%[46.1 µM]	7%	0%[46.1 µM]	.	.
CCOC(=O)C1=C(COC(=O)c2ccccc2OC)NC(=O)NC1C (stereo not drawn)	-15%	.	.	10%	-7%	0%[46.1 µM]	-1%	.
CCOC(=O)c1sc(N)c(C(=O)OCC)c1C	68%[activator]	.	-30%	?	-8%	3%	-3%	.
CC(=O)Oc1ccc2nc(-c3ccc(Br)o3)oc(=O)c2c1	-6%	.	-7%	25%[46.1 µM]	-26%	-1%[46.1 µM]	-3%	.
Cc1cccc(C)c1NC(=O)CSc1nnc(NC(=O)C2CC2)s1	-4%	.	8%	.	17%	-15%[46.1 µM]	1%	.
CCOC(=O)c1ccc(NC(=O)CCNC(=O)c2ccc([N+](=O)[O-])cc2)cc1	-13%	-3.6%	4%	-1%	-1%	10%	9%	3%
COCCC(=O)Nc1ccc2c(c1)CN(C(=O)CCOC)CC2	-13%	.	1%	-4%[46.1 µM]	7%	-3%[46.1 µM]	0%	.
O=C(NCc1ccc(Cl)cc1Cl)c1cccc(N2CCCS2(=O)=O)c1	0%	-9.9%	.	-29%[46.1 µM]	.	-11%[46.1 µM]	.	8%
COc1ccc(CC2(C)OC(c3ccc([N+](=O)[O-])cc3)=NN2C(C)=O)cc1 (stereo not drawn)	?	.	-33%	?	-18%	?	-4%	.
Nc1nc(-c2ccccc2)cc(-c2ccccc2O)n1	.	-12%	-39%	-1%	0%	-26%	-10%	-17%
CCOC(=O)c1sc(NC(=O)C2c3ccccc3Oc3ccccc32)c(C#N)c1C	0%	-2.3%	.	-21%[46.1 µM]	.	-14%[46.1 µM]	.	-3%
CCc1cccc(NC(=O)C2CCC(CNS(=O)(=O)c3csc(C(N)=O)c3)CC2)c1 (stereo not drawn)	-22%	1.3%	.	8%[46.1 µM]	.	.	.	0%
Nc1c(-c2ccccc2Cl)cnn1-c1cccc([N+](=O)[O-])c1	-17%	-5.1%	-74%	6%	-6%[3.69 µM]	4%	-5%	9%
CC1OC2(C)OC(=N)C1(C#N)C(C#N)(C#N)C2c1ccccc1 (stereo not drawn)	?	-1.0%	30%	?	.	?	13%	-5%
COc1cc(C)nc(NC(=O)COc2ccc(Cl)cc2C)n1	13%	0.2%	7%	-26%	6%	15%[46.1 µM]	-2%	-29%
O=C(CCc1nnc(Cc2c[nH]c3ccccc23)o1)NCC1CC12CCCCC2 (stereo not drawn)	-9%	.	1%	-1%[46.1 µM]	-2%	?	-1%	.
CCOC(=O)c1nc(Nc2ccc(C)cc2)c2ccccc2n1	-23%	-1.9%	-68%	3%	0%	-13%	-24%	2%
CSc1ccccc1C(=O)OCC(=O)NC1CCS(=O)(=O)C1 (stereo not drawn)	-6%	.	.	1%	-6%	15%[46.1 µM]	0%	.
CCOC(=O)c1ccc2nc(C)cc(Nc3ccc(OC(C)C)cc3)c2c1	?	-4.7%	.	?	.	?	.	3%
CC(C)=CC(=O)OCC(=O)NC(=O)NC(C)(C)C	23%	1.2%	-3%	-8%	2%	2%[46.1 µM]	1%	9%
COc1ccc2c3c([nH]c2c1)C1CC2C(CC(O)C(OC)C2CO)CN1CC3 (stereo not drawn)	-21%	.	4%	.	-13%	.	2%	.
COc1ccc(NC(=O)C2=C(C)Nc3c(C(=O)Nc4ccc(C)cc4)cnn3C2c2cc(OC)ccc2OC)cc1 (stereo not drawn)	-1%	-5.7%	.	5%[46.1 µM]	.	.	.	-1%
CC(CN1CCCC1)OC(=O)C(c1ccccc1)c1ccccc1 (stereo not drawn)	-23%	.	14%	.	4%	.	-4%	.
CCC1C(C#N)=C(N)Oc2c1c(=O)oc1ccccc21 (stereo not drawn)	-17%	.	5%	.	8%	.	1%	.
COCCN(C(=O)COC(=O)CCS(=O)(=O)c1ccccc1)c1c(N)n(Cc2ccccc2)c(=O)[nH]c1=O	-16%	.	.	?	9%	-4%[46.1 µM]	0%	.
CCOC(=O)C1CCN(C(=O)c2cc(C)n(C(C)(C)C)n2)CC1	28%	.	6%	?	12%	17%[46.1 µM]	1%	.
CCn1c(Cc2ccccc2)nnc1SCc1nc2ccccc2c(=O)[nH]1	-7%	-3.6%	-4%	-7%	3%	1%	3%	-21%
CCOC(=O)c1c(C)c(C(=O)Nc2ccc3c(c2)OCCO3)c(C)n1C	21%	-7.1%	5%	2%	9%	?	5%	-11%
COc1ccc(CCC(=O)NCCc2cnc[nH]2)cc1	-4%	.	2%	.	-10%	.	-1%	.
COc1cc(/C=N/NC(=O)c2sc(N)c(C#N)c2C)ccc1O	-18%	3.2%	11%	-7%	-4%	4.5µM*	1%	1%
O=C(COc1coc(CN2CCc3ccccc3C2)cc1=O)Nc1cccc(F)c1	-13%	.	.	?	-16%	0%	1%	.
O=C(O)COc1ccc(/C=N/NC(=O)C(O)(c2ccccc2)c2ccccc2)cc1	4%	.	2%	-2%	-5%	?	1%	.
Cc1ccc(S(=O)(=O)NCCC(=O)OCC(=O)NCCc2ccccc2)cc1C	?	.	.	10%	0%	?	-11%	.
COC(=O)C1=C(O)/C(=C/c2ccc(OCC(=O)Nc3ccccc3)cc2)N=C1C	-22%	.	-13%	.	-7%	.	0%	.
COc1ccc(CC(NC(C)=O)C(=O)NC2CCN(c3nc(C)cc(C)c3C#N)CC2)cc1 (stereo not drawn)	-13%	.	2%	?	-5%	-13%	0%	.
Clc1ccc(C=NNc2ccccn2)c(Cl)c1	20%	.	.	?	8%	29%	.	.
COc1ccc(NC(=O)CCN2CCN(CCO)CC2)cc1	11%	-0.5%	.	-4%[46.1 µM]	.	.	.	1%
C=CCn1ccc(=O)nc1SC	-2%	.	.	4%[46.1 µM]	2%	3%[46.1 µM]	.	.
CC(C)c1ccc(/C=C/C(=O)n2nnc3ccccc32)cc1	0%	-0.5%	-8%	?	-8%	?	.	-17%
O=c1c(-c2ccccc2)n[nH]c2ccccc12	-7%	-6.7%	-143%	-28%	-25%	-25%[46.1 µM]	-18%	-2%
Cc1cc(C(=O)NNC(=S)NCc2ccco2)n(C)n1	4%	-3.6%	-2%	22%	14%	14%	9%	2%
Cc1cc(C)c2cc(C)c3nnc(SCC(=O)NCc4ccc5c(c4)OCO5)n3c2c1	-9%	-0.8%	5%	12%	4%	0%	-3%	?
O=C(Oc1ccccc1-c1nnco1)c1ccc(Cl)cc1	-7%	-2.7%	-56%	9%	-27%	17%	7%	0%
Next compounds follow.
SMILES	2A StopGo	Cruzain Triton	NS1 function inh	LASV entry inh	RE007 growth inh	Marburg entry inh	SARS PLpro yeast	Cruzain noTriton
CCc1ccc(C(=O)CSc2n[nH]c(-c3ccncc3)n2)cc1	-21%	6.3%	-59%	-15%	-15%	-1%	-21%	21%
O=C(NCc1cc([N+](=O)[O-])ccc1O)c1cccc(NS(=O)(=O)c2ccccc2)c1	3%	.	14%	2%	4%	0%	-6%	.
Cc1[nH]c2ccccc2c1SCC(=O)O	-15%	0.6%	6%	4%	-1%	28%	9%	-20%
Cc1ccc(/C=N/NC(=O)c2cccc(S(=O)(=O)Nc3ccccc3Cl)c2)s1	19%	-12%	?	2%	5%	-26%	14%	1%

Screening data (PubChem BioAssay)
